Bioassay records as filed in PubChem BioAssay.
MT1-MMP act inh: blockers of MT1-MMP proenzyme processing, primary screen, HT1080 RFP-PRO-GFP cells, GFP/RFP fluorescence | hit rate 0.061% among 360,000 | GFP/RFP ratio fluorescence, overnight; percent of plate control window, DMSO zero | Matrix metalloproteinase-14 (Homo sapiens), P50281 | GFP/RFP ratio change, % at 20 µM;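 active = GFP/RFP ratio change of at least 30% with cell ATP level not reduced by more than half and red fluorescence within 50% of control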; also: strong numbers were not always called active
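Assay system: HT1080 RFP-PRO-GFP cells | Dosing: 20 µM single dose, 1% DMSO | Incubation: Cells overnight before dosing, compound overnight, 37 °C, 5% CO2 | Evaluation: GFP/RFP fluorescence ratio | Control set: DMSO-only wells and HT1080 RFP-L50D-GFP cell wells as references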
PABP polyA inh: PABP poly(A) RNA binding inhibitors, primary screen, biochemical, fluorescence polarization, uHTS | Polyadenylate-binding protein 1 (Homo sapiens), P11940 | inhibition, % at 35 µM | hit rate 1% among 290,000 | AID 2014, 2009;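 active = 50% or more with normal probe brightness, or confirmed in later tests; about a fifth of its hits are not listed in these tables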;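 also: calls also rest on retests at 20 µM and on dose response follow-up; controls were probe without protein and protein plus probe with vehicle; some compounds called inactive have numbers as strong as hits; many hits fall short of the cut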
Yeast UUG start: modulators of yeast start codon fidelity, primary screen, whole organism, S. cerevisiae, single point, plate reader; S. cerevisiae UUG-firefly luciferase reporter, luminescence/redox ratio; activity score, % at 18.7 µM; hit rate 0.13% among 350,000; AID 602363, 2012;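 active = replicate mean at a twofold rise or more, about +100% in these data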;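 also: firefly luciferase made from a UUG start codon reports start codon fidelity; reporter light over untreated wells divided by growth signal over untreated wells; some hits fall short of that in this replicate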
Rce1 inhib: yeast Rce1p protease inhibitors, primary screen, biochemical, fluorescence, cell-free homogeneous; calls only; AID 2563, 2010; yeast membranes, quenched prenylated peptide cleavage fluorescence; CAAX prenyl protease 2 (Saccharomyces cerevisiae (strain ATCC 204508 / S288c)), Q03530; hit rate 0.27% among 290,000;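 active = fall in fluorescence gain of 50% or more versus controls, with final raw signal at or below 3038400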;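 also: plate controls were neutral control wells for no effect and wells lacking membranes for full effect; tested at 10 µM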
Target sequence (Q03530 whole entry, looked up): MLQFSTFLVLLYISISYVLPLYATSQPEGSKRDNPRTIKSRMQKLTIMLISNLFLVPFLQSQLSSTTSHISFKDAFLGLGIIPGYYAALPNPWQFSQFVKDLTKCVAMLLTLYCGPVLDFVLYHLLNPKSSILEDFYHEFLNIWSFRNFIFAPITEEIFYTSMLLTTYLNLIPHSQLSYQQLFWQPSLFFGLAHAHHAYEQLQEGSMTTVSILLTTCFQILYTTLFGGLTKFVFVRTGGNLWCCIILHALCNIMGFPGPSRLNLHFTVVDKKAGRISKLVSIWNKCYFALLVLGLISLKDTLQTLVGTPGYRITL
CSC inhib: cancer stem cell viability inhibitors, primary screen, luminescence; AID 2717, 2010; hit rate 1.1% among 300,000; inhibition, % at 7.5 µM; cancer stem cell-like cells viability;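 active = mean at 75% or more and at least half the replicates too; tested in HMLE shEcad cells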;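 also: 0% = median of negative and 100% = median of positive control wells; the first replicate is given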
HIV Env fusion: inhibitors of HIV-1 Env-driven cell-cell fusion, primary screen, HeLa-JRFL effector, CEM21 target cells, luciferase | inhibition, % at 12.3 µM | hit rate 1.1% among 360,000;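 active = mean replicate inhibition score of at least 50 and every replicate individually at or above 50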;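 also: 0% = plate neutral controls and 100% = maraviroc near 300 nM; one replicate is shown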
eIF4H FP inh: human eIF4H binding inhibitors, primary screen, translation initiation inhibitor project, biochemical, uHTS, fluorescence polarization | eIF4H fluorescence polarization binding assay | AID 2012, 2009 | Eukaryotic translation initiation factor 4H (Homo sapiens), Q15056 | inhibition, % at 35 µM | hit rate 0.94% among 290,000;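 active = 50% or more with normal probe brightness, or confirmed in later tests; about a fifth of its hits are not listed in these tables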;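 also: calls also rest on retests at 20 µM and on dose response follow-up; 0% = protein and probe with vehicle and 100% = probe without protein; strong numbers were not always called active; many hits fall short of the cut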
eIF4H FP inh retest: second read-out of eIF4H FP inh, no call of its own (marks repeat the call); inhibition, %; compound at 20 µM; confirmation average;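 mean of two retest wells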
PABP polyA inh retest: second read-out of PABP polyA inh, no call of its own (marks repeat the call); inhibition, %; compound at 20 µM; confirmation repeats;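 mean of two retest wells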
MT1-MMP act inh RFP: further read-out of MT1-MMP act inh, marked with its call; RFP signal change, %; measured here: RFP expression control read;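 0 = vehicle wells; hits needed this value within 50% of zero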
* marks the source's active call; other numbers are inactive results. This is a subset; the hit share may differ from the screen's.

What do the screens show for `CCCOc1ccc(N2C(=O)CC(NNC(=O)c3ccc(COc4ccccc4)o3)C2=O)cc1` (stereo not given)?
MT1-MMP act inh: 4; PABP polyA inh: 62*; Rce1 inhib: inactive; CSC inhib: -3; HIV Env fusion: 0; eIF4H FP inh: -9; eIF4H FP inh retest: 50; PABP polyA inh retest: 70*; MT1-MMP act inh RFP: 7

What do the screens show for `CCn1c(Cc2ccccc2)nnc1SCC(=O)Nc1nnc(-c2ccccc2)s1`?
MT1-MMP act inh: 1; PABP polyA inh: -11; Yeast UUG start: -9; Rce1 inhib: inactive; CSC inhib: 27; eIF4H FP inh: -1; MT1-MMP act inh RFP: 3

What do the screens show for `COc1ccc(-c2[nH]nc3c2C(c2ccc(OC(=O)N4CCOCC4)cc2)C(C#N)=C(N)O3)cc1` (stereo not given)?
PABP polyA inh: -14; CSC inhib: 5; HIV Env fusion: 8; eIF4H FP inh: -2

How did COc1ccccc1N1CC(O)=C(c2nc3ccccc3s2)C1=N do in these assays?
MT1-MMP act inh: 8; PABP polyA inh: 15; Yeast UUG start: -10; Rce1 inhib: inactive; CSC inhib: 22; eIF4H FP inh: 2; MT1-MMP act inh RFP: 3

What do the screens show for `CC(C)C(NS(=O)(=O)c1cccs1)C(=O)NCc1ccccc1Cl` (stereo not given)?
MT1-MMP act inh: -3; PABP polyA inh: -8; Rce1 inhib: inactive; CSC inhib: 15; HIV Env fusion: -18; eIF4H FP inh: -4; MT1-MMP act inh RFP: -3

How did CC(=O)c1cccc(S(=O)(=O)N2CCN(CCOc3ccccc3)CC2)c1 do in these assays?
MT1-MMP act inh: 1; Yeast UUG start: -7; CSC inhib: 3; MT1-MMP act inh RFP: -11

What do the screens show for `COc1ccc(C(=O)N[C@H](C(=O)NCc2ccco2)C(C)C)cc1`?
MT1-MMP act inh: 2; PABP polyA inh: 3; Yeast UUG start: 5; Rce1 inhib: inactive; CSC inhib: 9; HIV Env fusion: -2; eIF4H FP inh: -8; MT1-MMP act inh RFP: 4

How did Oc1ccc(C2Nc3cccc4cccc(c34)N2)cc1 do in these assays?
MT1-MMP act inh: 5; PABP polyA inh: 69*; Yeast UUG start: -15; Rce1 inhib: inactive; CSC inhib: -1; HIV Env fusion: 20; eIF4H FP inh: 97*; MT1-MMP act inh RFP: 0

What do the screens show for `CN1C(=O)C(CC(=O)Nc2ccc(F)cc2)N(CCCc2ccccc2)C1=S` (stereo not given)?
MT1-MMP act inh: -3; PABP polyA inh: 1; Yeast UUG start: 3; Rce1 inhib: inactive; CSC inhib: 0; eIF4H FP inh: -6; MT1-MMP act inh RFP: -11

How did O=C(NC1CCCCC1)NC1(C(=O)NCCCN2CCOCC2)CCCCC1 do in these assays?
MT1-MMP act inh: -7; PABP polyA inh: -4; Yeast UUG start: 11; Rce1 inhib: inactive; CSC inhib: -2; eIF4H FP inh: 3; MT1-MMP act inh RFP: -1

How did COc1nc(OC)nc(N2CCCCCC2)n1 do in these assays?
MT1-MMP act inh: -2; PABP polyA inh: -12; Yeast UUG start: 3; Rce1 inhib: inactive; CSC inhib: -4; eIF4H FP inh: -6; MT1-MMP act inh RFP: 4

Results for CN(CC(=O)Nc1ccccc1C(F)(F)F)C(=O)CSc1nnc(-c2ccncc2)n1C ?
MT1-MMP act inh: -6; Yeast UUG start: -9; CSC inhib: 18; MT1-MMP act inh RFP: 0

Results for COc1cc2oc(=O)c(Br)c(C)c2c(OC)c1OC ?
MT1-MMP act inh: 0; PABP polyA inh: -1; Yeast UUG start: -8; CSC inhib: -13; eIF4H FP inh: 0; MT1-MMP act inh RFP: 1

What do the screens show for `COc1ccc(OC)c(CNc2ccc3c(c2)nc(C)n3C)c1`?
MT1-MMP act inh: 2; PABP polyA inh: -10; Yeast UUG start: -12; Rce1 inhib: inactive; CSC inhib: -2; HIV Env fusion: -3; eIF4H FP inh: 76; eIF4H FP inh retest: -10; PABP polyA inh retest: 13; MT1-MMP act inh RFP: -2

What do the screens show for `CCOc1ccc(NS(=O)(=O)c2ccc(C(=O)N3CCC3)cc2)cc1`?
MT1-MMP act inh: 3; PABP polyA inh: 16; Yeast UUG start: -11; Rce1 inhib: inactive; CSC inhib: 15; HIV Env fusion: 5; eIF4H FP inh: 5; MT1-MMP act inh RFP: 0

What do the screens show for `Cc1cc(NC(=O)c2cccc(S(=O)(=O)Nc3cccc(C(=O)O)c3)c2)no1`?
MT1-MMP act inh: -12; PABP polyA inh: -12; Yeast UUG start: -25; CSC inhib: -12; HIV Env fusion: 14; eIF4H FP inh: -18; MT1-MMP act inh RFP: 2

Results for O=CN1CCN(c2c([N+](=O)[O-])c(=O)oc3ccccc23)CC1 ?
MT1-MMP act inh: -3; PABP polyA inh: -3; Yeast UUG start: -21; Rce1 inhib: inactive; CSC inhib: -10; HIV Env fusion: -1; eIF4H FP inh: 5; MT1-MMP act inh RFP: 0

How did Cc1ccc(C)c(N2CCN(C(=O)c3ccc4nc(-c5ccco5)c(-c5ccco5)nc4c3)CC2)c1 do in these assays?
MT1-MMP act inh: -4; PABP polyA inh: 25; Yeast UUG start: -7; Rce1 inhib: inactive; CSC inhib: 0; HIV Env fusion: 25; eIF4H FP inh: 86*; eIF4H FP inh retest: 86*; PABP polyA inh retest: 47; MT1-MMP act inh RFP: -10

What do the screens show for `COc1ccc(CNC(=O)COc2cc(O)c3c(c2)OC(C)(C)CC3=O)c(OC)c1`?
MT1-MMP act inh: 0; PABP polyA inh: 2; Yeast UUG start: -5; Rce1 inhib: inactive; CSC inhib: -3; eIF4H FP inh: -10; MT1-MMP act inh RFP: 2

Results for CSCCC(NC(=O)c1ccc(C(C)(C)C)cc1)C(=O)OCC(=O)N1CCCC1=O (stereo not given) ?
MT1-MMP act inh: 0; Yeast UUG start: -11; HIV Env fusion: -27; MT1-MMP act inh RFP: 1

How did O=[N+]([O-])c1cccc(/C=C/C=N/Nc2nc(N3CCCCC3)nc(N3CCCCC3)n2)c1 do in these assays?
MT1-MMP act inh: -1; PABP polyA inh: 2; Rce1 inhib: inactive; CSC inhib: -2; HIV Env fusion: 18; eIF4H FP inh: -4; MT1-MMP act inh RFP: -1

How did Cc1cc(NC2CCCCC2)n2c(n1)nc1ccccc12 do in these assays?
MT1-MMP act inh: 7; PABP polyA inh: -4; Rce1 inhib: inactive; CSC inhib: 0; HIV Env fusion: 17; eIF4H FP inh: -7; MT1-MMP act inh RFP: 3

How did Cc1ccc(S(=O)(=O)N2CCNC(=O)C2)c(C)c1 do in these assays?
MT1-MMP act inh: -4; Yeast UUG start: 1; HIV Env fusion: -10; MT1-MMP act inh RFP: 1

How did Cc1ccc(NC(=O)CCC(=O)NNC(=O)COc2ccccc2)cc1C do in these assays?
MT1-MMP act inh: -1; PABP polyA inh: -1; Yeast UUG start: -7; Rce1 inhib: inactive; CSC inhib: -12; HIV Env fusion: -1; eIF4H FP inh: -7; MT1-MMP act inh RFP: 0

How did CC(Nc1ccnc2cc(Cl)ccc12)c1ccc(S(N)(=O)=O)cc1 (stereo not given) do in these assays?
MT1-MMP act inh: -1; PABP polyA inh: 5; Yeast UUG start: 4; Rce1 inhib: inactive; CSC inhib: 4; HIV Env fusion: -4; eIF4H FP inh: -9; MT1-MMP act inh RFP: -1

What do the screens show for `N#Cc1c(N)n(CCCN2CCOCC2)c2nc3ccccc3nc12`?
MT1-MMP act inh: 0; PABP polyA inh: 10; Yeast UUG start: -12; CSC inhib: -10; HIV Env fusion: -22; eIF4H FP inh: -1; MT1-MMP act inh RFP: 2

What do the screens show for `Cc1cc(C)nc(SCc2ccc3nonc3c2)n1`?
MT1-MMP act inh: -2; PABP polyA inh: 6; Yeast UUG start: -10; Rce1 inhib: inactive; CSC inhib: 15; HIV Env fusion: -15; eIF4H FP inh: -2; MT1-MMP act inh RFP: -3

Results for C/C(=N/NS(=O)(=O)c1ccc(C(C)(C)C)cc1)c1ccc2c(c1)OCO2 ?
MT1-MMP act inh: 2; PABP polyA inh: -4; Yeast UUG start: -5; Rce1 inhib: inactive; CSC inhib: -1; HIV Env fusion: -5; eIF4H FP inh: 4; MT1-MMP act inh RFP: 1

What do the screens show for `O=C(O)C1(C(=O)O)CCCC1`?
MT1-MMP act inh: -3; Yeast UUG start: -14; HIV Env fusion: 33; MT1-MMP act inh RFP: 5

What do the screens show for `COc1ccc(C2=NS(=O)(=O)N(C)C(C(=O)N(C)Cc3ccccc3)=C2)cc1`?
MT1-MMP act inh: 0; PABP polyA inh: -15; Yeast UUG start: 4; Rce1 inhib: inactive; CSC inhib: -11; HIV Env fusion: 17; eIF4H FP inh: -6; MT1-MMP act inh RFP: -1

What do the screens show for `COc1ccc(C2CC(c3ccccc3)=NN2C(=O)CSc2ncccn2)cc1` (stereo not given)?
MT1-MMP act inh: -1; PABP polyA inh: 10; Yeast UUG start: -23; Rce1 inhib: inactive; HIV Env fusion: 9; eIF4H FP inh: -10; MT1-MMP act inh RFP: -4

What do the screens show for `COc1ccc(/C(C)=N/Nc2ccc(C(=O)O)cc2)cc1OC`?
MT1-MMP act inh: 4; PABP polyA inh: 5; Yeast UUG start: -19; Rce1 inhib: inactive; CSC inhib: -6; eIF4H FP inh: 7; MT1-MMP act inh RFP: 4

How did CCCS(=O)(=O)N1CCCC(C(=O)Oc2ccccc2Cl)C1 (stereo not given) do in these assays?
MT1-MMP act inh: 0; PABP polyA inh: 11; Yeast UUG start: -16; Rce1 inhib: inactive; CSC inhib: -12; HIV Env fusion: 1; eIF4H FP inh: 0; MT1-MMP act inh RFP: -4

How did CN1CCN(C(=O)CCC(=O)NCc2ccc(F)cc2)CC1 do in these assays?
MT1-MMP act inh: -3; PABP polyA inh: 5; Yeast UUG start: -15; Rce1 inhib: inactive; CSC inhib: -8; HIV Env fusion: 6; eIF4H FP inh: 2; MT1-MMP act inh RFP: 0

How did CC1CC(=O)C2=C(C1)Nc1ccccc1N(C(=O)COc1ccccc1)C2c1ccco1 (stereo not given) do in these assays?
MT1-MMP act inh: -2; PABP polyA inh: 18; Yeast UUG start: -12; Rce1 inhib: inactive; CSC inhib: -4; HIV Env fusion: -97; eIF4H FP inh: 5; MT1-MMP act inh RFP: -1

What do the screens show for `COc1ccc(C(=O)SC2=NCCS2)cc1OC`?
MT1-MMP act inh: 1; PABP polyA inh: 7; Yeast UUG start: -21; Rce1 inhib: inactive; CSC inhib: -19; HIV Env fusion: -6; eIF4H FP inh: -5; MT1-MMP act inh RFP: 5

What do the screens show for `COc1ccc(C(=O)NCC(=O)N/N=C/c2ccco2)cc1OC`?
MT1-MMP act inh: -8; PABP polyA inh: 10; Yeast UUG start: -28; Rce1 inhib: inactive; HIV Env fusion: 15; eIF4H FP inh: 5; MT1-MMP act inh RFP: -3

Results for COCc1nnc(NC(=O)CCCOc2ccccc2OC)s1 ?
MT1-MMP act inh: 3; PABP polyA inh: -6; Yeast UUG start: -19; Rce1 inhib: inactive; CSC inhib: -12; HIV Env fusion: -7; eIF4H FP inh: 2; MT1-MMP act inh RFP: 2
